B2AR ag: activates human beta-2 adrenergic receptor causing internalization | P07550 | Am2.2-beta2AR cells, FAP receptor internalization, flow cytometry; reference of the scale not given here | response, % (test concentration not listed) | 340,000 compounds, 0.43% hits | AID 504454;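 active means response above a set limit, near 3 SD of response in nonfluorescent compounds, cut at about 42% in these data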;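 further: stock transfer was 100 nL into about 11 µL; a reference agonist was the positive control; negative values mostly stem from fluorescent compounds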
Target sequence (P07550 whole entry, looked up): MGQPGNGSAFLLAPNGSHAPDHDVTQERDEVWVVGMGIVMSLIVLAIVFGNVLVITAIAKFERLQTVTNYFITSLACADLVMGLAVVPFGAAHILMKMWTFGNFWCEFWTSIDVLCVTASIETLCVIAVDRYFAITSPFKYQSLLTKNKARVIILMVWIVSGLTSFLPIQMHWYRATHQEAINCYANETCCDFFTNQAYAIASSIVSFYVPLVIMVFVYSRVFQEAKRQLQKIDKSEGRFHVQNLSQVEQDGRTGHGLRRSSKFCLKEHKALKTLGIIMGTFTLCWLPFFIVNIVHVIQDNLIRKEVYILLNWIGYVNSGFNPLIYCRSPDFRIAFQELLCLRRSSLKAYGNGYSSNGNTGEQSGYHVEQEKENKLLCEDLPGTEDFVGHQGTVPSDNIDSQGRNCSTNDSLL
rRNA inh HTS: inhibitors of bacterial rRNA selective over humanized ribosomes; E. coli WT GFP vs humanized-ribosome RFP mutants, fluorescence, 24 h; active compounds read low; DMSO median 0, no signal -100; GFP signal change (wild-type ribosome), % (concentration not given with the values); 350,000 compounds, 1.6% hits;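 active means significant combined selectivity score with lowered wild-type GFP, culture density cut under 30%, mutant RFP and density less affected; inactive means any of these conditions unmet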; further: one replicate is shown; some compounds called inactive have numbers as strong as hits
rRNA inh HTS OD600: second read-out of rRNA inh HTS, no call of its own (marks repeat the call); OD600 change, %; measured here: OD600 growth;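 optical density of the mix in the first replicate; 0 = DMSO median and -100 = no signal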
rRNA inh HTS RFP: second read-out of rRNA inh HTS, no call of its own (marks repeat the call); RFP signal change, %; measured here: RFP humanized mutant strains;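 first replicate; 0 = DMSO median and -100 = no signal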
An asterisk follows results filed as active. Only part of the results is shown (hit frequency here may not be typical).

entry	B2AR ag	rRNA inh HTS	rRNA inh HTS OD600	rRNA inh HTS RFP	SMILES
1	29	-14*	5.8*	1.8*	O=C(/C=C/c1ccc([N+](=O)[O-])cc1)c1ccccc(=O)c1O
2	-7	-1	-5	-2.9	CC(=O)C1(C)C(=O)N(c2ccc(F)cc2)C(=O)N1c1ccc(F)cc1 (stereo unspecified)
3	2	9	1	-2.0	COc1ccccc1N(CC(=O)Nc1c(C)n(C)n(-c2ccccc2)c1=O)S(=O)(=O)c1ccccc1
4	-3	-2	-2	-4.3	CC[C@@]1(C(=O)OC)N[C@H](CN(C)C(=O)Nc2ccccc2)[C@@H]2C(=O)N(Cc3ccccc3)C(=O)[C@@H]21
5	-10	4	-12	4.7	CC(C)=CCC/C(C)=C/CNC(=O)C[C@H]1C[C@H](C(=O)N2CCOCC2)[C@@]2(C)c3[nH]c4cc(CCC(=O)N(C)C)ccc4c3CCN2C1=O
6	2	-4	0	-1.9	COc1ccc(S(=O)(=O)N2CCCCC2)cc1NC(=O)c1cccc(S(=O)(=O)N2CC(C)OC(C)C2)c1 (stereo unspecified)
7	-5	0	-32	1.5	CN1C(=O)N(CC(=O)Nc2cccc(S(=O)(=O)N(C)c3ccccc3)c2)C(=O)C12CCCCC2
8	-10	10	11	6.4	Cc1ccc(C)c(NC(=O)CC2Sc3ccccc3NC2=O)c1 (stereo unspecified)
9	-1	15	13	-0.3	CCN1CCN(C(c2cccnc2)c2c(NC(=O)c3ccco3)sc(C)c2C)CC1 (stereo unspecified)
10	-10	-25	-57	5.7	CC(=O)Nc1ccc2c(c1)-c1ccc(F)cc1C2
11	6	-1	-2	-0.7	Cc1ccc(C(=O)OCC(=O)c2ccc(CC(=O)N3CCOCC3)s2)c(C)c1
12	24	-7	-14	0.5	Cc1cc(C)c(S(=O)(=O)N2CCN(C(=O)c3c(C)nn(-c4ccccc4)c3Cl)CC2)c(C)c1
13	2	-4	-7	-2.1	CCOC(=O)c1c(C)c(/C=N/Nc2ccccc2)n(C)c1C
14	-7	-4	-5	1.4	CCN(c1ccccc1)S(=O)(=O)c1ccc(OCC(F)(F)F)c(NC(=O)c2ccc(=O)[nH]c2)c1
15	-2	14	14	1.3	CN1CCN(c2ccc(NC(=O)c3cc(Cl)c4c(c3)OCCO4)cc2)CC1
16	-1	-14	-29	1.5	COc1cccc(CN(C)CC(=O)Nc2cc(S(=O)(=O)N3CCCC3)ccc2Cl)c1OC
17	8	11	17	2.7	NS(=O)(=O)c1cccc(NC(=O)CCc2ccc(S(=O)(=O)N3CCOCC3)cc2)c1
18	-6	-4	-8	5.5	CN=c1sc2c(n1C)C(=O)c1ccccc1C2=O
19	8	-33	-38	-9.4	Cc1cc(CCNC=O)c(C)c2c1sc1ccccc12
20	6	-7	-7	-3.7	O=C(Cc1cccc(NC(=O)C2CCN(C(=O)CCc3ccccc3)CC2)c1)Nc1cccc(C(=O)N2CCCCC2)c1
21	-5	3	3	0.6	Cc1ncnc(N)c1CCCNc1ccccc1
22	4	2	1	-3.4	O=C(O)C(Cc1cccs1)c1cccs1 (stereo unspecified)
23	0	8	11	-1.1	O=C(CCS(=O)(=O)c1ccc(Cl)cc1)Nc1nccs1
24	-2	-25	-59	7.4	CCC(CC)C(=O)OCC(=O)C1(O)CCC2C3CCC4=CC(=O)CCC4(C)C3C(O)CC21C (stereo unspecified)
25	-5	-4	-5	-3.8	CCCC(=O)c1ccc(OCc2cn(CC(=O)c3ccc(O)cc3)nn2)cc1
26	1	-7	-7	6.4	O=C(Cc1cccc(NC(=O)C2CCN(C(=O)C3CCCC3)CC2)c1)Nc1cccc(C(=O)N2CCCCC2)c1
27	-3	4	13	-0.6	CCOc1cc(N2CCOCC2)c(OCC)cc1NC(=O)c1ccc(S(=O)(=O)N2CC(C)OC(C)C2)cc1 (stereo unspecified)
28	-2	16	24	1.0	CC12CCCCC1C(C(N)=O)C(=O)O2 (stereo unspecified)
29	-4	3	0	0.2	COc1cc(CCC(=O)OCC(=O)Nc2cc(S(=O)(=O)N3CCOCC3)ccc2Cl)cc(OC)c1OC
30	5	-7	-6	11	CCC(=O)Nc1c(C#N)c2nc3ccccc3nc2n1-c1ccc(C)cc1

Entries shown so far with an NH in an aromatic ring (2):
entry	B2AR ag	rRNA inh HTS	rRNA inh HTS OD600	rRNA inh HTS RFP	SMILES
5	-10	4	-12	4.7	CC(C)=CCC/C(C)=C/CNC(=O)C[C@H]1C[C@H](C(=O)N2CCOCC2)[C@@]2(C)c3[nH]c4cc(CCC(=O)N(C)C)ccc4c3CCN2C1=O
14	-7	-4	-5	1.4	CCN(c1ccccc1)S(=O)(=O)c1ccc(OCC(F)(F)F)c(NC(=O)c2ccc(=O)[nH]c2)c1

Whole records, quoted from the list:
Listed for CCOc1cc(N2CCOCC2)c(OCC)cc1NC(=O)c1ccc(S(=O)(=O)N2CC(C)OC(C)C2)cc1 (stereo unspecified) : B2AR ag = -3; rRNA inh HTS = 4; rRNA inh HTS OD600 = 13; rRNA inh HTS RFP = -0.6
Listed for CCN(c1ccccc1)S(=O)(=O)c1ccc(OCC(F)(F)F)c(NC(=O)c2ccc(=O)[nH]c2)c1 : B2AR ag = -7; rRNA inh HTS = -4; rRNA inh HTS OD600 = -5; rRNA inh HTS RFP = 1.4

Returning to the listing with the two entries that preceded the break.
entry	B2AR ag	rRNA inh HTS	rRNA inh HTS OD600	rRNA inh HTS RFP	SMILES
29	-4	3	0	0.2	COc1cc(CCC(=O)OCC(=O)Nc2cc(S(=O)(=O)N3CCOCC3)ccc2Cl)cc(OC)c1OC
30	5	-7	-6	11	CCC(=O)Nc1c(C#N)c2nc3ccccc3nc2n1-c1ccc(C)cc1
31	17	6	10	39	N#Cc1c2nc3ccccc3nc2n2cc(NC(=O)c3ccc(F)cc3)ccc12
32	5	-2	-14	4.2	Cc1ccc(C)c(N2CCN(C(=O)CCc3nc(-c4ccccc4Cl)no3)CC2)c1
33	1	9	13	2.5	O=S(=O)(NCc1nnc2ccccn12)c1ccc(F)cc1
34	5	9	-1	2.1	O=C1NC(=NCc2ccccc2)NC1(c1ccccc1)c1ccccc1
35	4	-14	-46	-8.9	Nc1cc(Cl)cc2c1-c1ccc(Cl)cc1C2O (stereo unspecified)
36	-4	1	4	-7.8	O=c1[nH]cnc2c1ncn2C1OCC(O)C(O)C1O (stereo unspecified)
37	-1	-8	-6	3.9	O=C(CN1CCN(S(=O)(=O)c2ccc3c(c2)OCCO3)CC1)Nc1cccc(F)c1
38	-2	6	11	12	CSc1cc(SC)ncn1
39	-12	1	5	-0.9	O=C(CSc1nnc(COc2ccc(Cl)cc2)o1)Nc1ccc(N2CCOCC2)cc1
40	2	-11	-18	1.2	COc1ccc(N2CCN(C(=O)c3cc(S(=O)(=O)N4CCCCCC4)ccc3OC)CC2)cc1
41	9	-8	-8	5.6	COc1ccc(CN(C)C(=O)c2ccc(NC(=O)CC3SC(N4CCCCC4)=NC3=O)cc2)c(OC)c1 (stereo unspecified)
42	1	15	20	1.2	CCCC1OC(c2ccco2)OCC1CC (stereo unspecified)
43	-3	12	12	-1.5	COc1ccc(CC(=O)NNC(=O)c2cc(Cl)ccc2OC)cc1
44	15	3	-26	7.5	COc1ccc(-c2cc(=O)c3c(C)cc(O)cc3o2)cc1
45	-3	25	12	4.6	OCC(O)C1OCOC(C(O)CO)C1O (stereo unspecified)
46	6	-4	4	7.1	Cc1nc2c(O)c3c(c(O)c2nc1C)C1C=CC3CC1
47	1	2	-5	3.2	OC(CSc1ccccc1)CN1CCN(c2ccccc2)CC1 (stereo unspecified)
48	-2	18	4	-0.8	Cc1ccc(Cc2ccccc2C(=O)O)cc1
49	1	13	1	0.7	CC(C)C[C@@H](CO)NS(=O)(=O)c1cc(Cl)ccc1F
50	4	5	8	1.5	O=C(O)c1ccccc1CC(CCc1ccccc1)C(=O)O (stereo unspecified)
51	22	0	4	-0.2	COc1ccc(-c2ccc(-c3cc(=O)oc4cc(OC)c(OC)c(OC)c34)cc2)cc1
52	-4	4	7	1.4	O=C(NN=Cc1ccccc1O)C(O)(c1ccccc1)c1ccccc1
53	-5	0	5	-3.5	COC(=O)[C@]1(C)N[C@H](CN(C)S(=O)(=O)c2ccc(OC(F)(F)F)cc2)[C@@H]2C(=O)N(C)C(=O)[C@@H]21
54	-1	-2	-4	-0.8	Cc1c(NS(=O)(=O)c2cccc(C(=O)Nc3cccc(F)c3)c2)c(=O)n(-c2ccccc2)n1C
55	0	8	11	-1.4	O=C1N[C@@H](Cc2c[nH]c3ccccc23)C(=O)N[C@H]1Cc1ccccc1
56	-2	-22	-18	4.9	CCN1CCN(c2ccc(S(=O)(=O)N3CCCCC3)cc2NC(=O)c2ccc(C)c(C)c2)CC1
57	15	-1	-3	-14	COc1ccc(C(CNC(=O)CN2C(=O)NC(C)(c3ccc4ccccc4c3)C2=O)N2CCCC2)cc1 (stereo unspecified)
58	-8	-10	-29	-7.3	CCOC(=O)C(=Cc1ccc2c(c1)OCO2)c1ccccc1
59	14	-5	-8	14	O=C1NC[C@H](Cc2ccccc2)N(C[C@H]2CCCN2C[C@H](Cc2ccccc2)N2C[C@H](Cc3ccc(O)cc3)N(CC3CCCCCC3)C(=O)C2=O)C1=O
60	1	-2	-4	-2.6	NC(=O)C1(Nc2ccc(-c3ccc(Cl)cc3)cc2)CCCC1
61	-5	5	2	-0.6	CCCCOc1ccc(C(=O)NCC(=O)N2CC(C)OC(C)C2)cc1 (stereo unspecified)
62	-1	7	8	1.0	Nc1ncnc2c1ncn2[C@@H]1O[C@H](CNC(=O)[C@H]2CCC(=O)N2)[C@@H](O)[C@H]1O
63	-2	-2	7	-2.3	N#Cc1ccc(C(=O)NN2C(=O)NC3(CCCCC3)C2=O)cc1
64	9	-2	-1	1.3	COc1ccc(C)cc1NC(=O)C(c1ccccc1)N1CCN(CC(=O)NC2CC2)CC1 (stereo unspecified)
65	4	6	2	-1.2	Nc1nc(SCC(=O)c2c(N)n(C3CC3)c(=O)[nH]c2=O)n[nH]1
66	7	3	-2	3.8	CCN(C(=O)CSc1nc2scc(-c3ccccc3)c2c(=O)n1N)C1CCS(=O)(=O)C1 (stereo unspecified)
67	-3	-2	-12	8.6	CCOc1ccc(NS(=O)(=O)c2ccc(C(=O)N(C)CC(=O)Nc3cccc(OC)c3)cc2)cc1
68	-5	-1	5	-2.5	CCN(CC)C(=O)[C@H]1C[C@H](CC(=O)NCc2ccc(OC)c(OC)c2)C(=O)N2CCc3c([nH]c4cc(CCC(=O)N(C)C)ccc34)[C@]12C
69	-7	5	2	-1.9	COc1ccccc1C(=O)NCC(=O)OCC(=O)N1CC(C)OC(C)C1 (stereo unspecified)
70	-12	-18	-18	-0.9	COc1cccc(C2c3cc4c(cc3OC(C)(N3CCCC3)C2C)OCO4)c1O (stereo unspecified)
71	0	12	6	-1.3	COCCCNC(=O)CC1C[C@H](C(=O)N2CCCCC2)[C@@]2(C)c3[nH]c4ccc(OC)cc4c3CCN2C1=O (stereo partly specified)
72	10	-4	-15	-2.9	O=C(NC1CC1)c1ccc(NC(=O)C2CCCC2)cc1
73	4	17	8	-1.4	Cc1nnc(SC(C)C(=O)Nc2ccc(N3CCOCC3)cc2)n1Cc1ccccc1 (stereo unspecified)
74	26	-9	-16	3.9	CC(=O)Nc1ccc(S(=O)(=O)N(C)c2ccc(OCC(=O)Nc3ccccc3C(C)=O)cc2)cc1
75	3	7	19	9.4	C#CCOCCOCCOCCNc1nc(N2CCN(C(=O)[C@H]([C@@H](C)CC)n3cc(CCC(=O)O)nn3)CC2)nc(N2CCN(C(=O)[C@H](CCCCN)n3cc(CC(C)O)nn3)CC2)n1 (stereo partly specified)
76	-2	-10	-16	-1.6	COc1ccc(-c2cc(CCC(=O)N3CCN(c4cc(C)ccc4C)CC3)on2)cc1
77	0	14	17	-0.9	COC(=O)C1C2CC(C(Br)C2Br)C1C(=O)O (stereo unspecified)
78	-1	8	12	3.8	O=C(NCC1CCCO1)c1cccc(S(=O)(=O)N2CCCCC2)c1 (stereo unspecified)
79	0	8	14	-1.7	COc1ccc(S(=O)(=O)NCCC(=O)OCC(=O)c2ccc[nH]2)cc1[N+](=O)[O-]
80	11	-3	-2	-1.9	O=CN(Cc1ccccc1)c1cc([N+](=O)[O-])ccc1OCc1ccccc1
81	-6	-11	-9	4.6	CC(=O)C1CCC2C3CC(C)C4=CC(=O)CCC4(C)C3C(=O)CC12C (stereo unspecified)
82	-1	5	15	-2.1	O=C(NCc1ccccc1)c1ccc(C(=O)NCc2ccccc2)cc1

Only rRNA inh HTS OD600, for 5 of the compounds above:
nr | molecule | rRNA inh HTS OD600
76 | COc1ccc(-c2cc(CCC(=O)N3CCN(c4cc(C)ccc4C)CC3)on2)cc1 | -16
77 | COC(=O)C1C2CC(C(Br)C2Br)C1C(=O)O (stereo unspecified) | 17
78 | O=C(NCC1CCCO1)c1cccc(S(=O)(=O)N2CCCCC2)c1 (stereo unspecified) | 12
79 | COc1ccc(S(=O)(=O)NCCC(=O)OCC(=O)c2ccc[nH]2)cc1[N+](=O)[O-] | 14
80 | O=CN(Cc1ccccc1)c1cc([N+](=O)[O-])ccc1OCc1ccccc1 | -2

Screening results: PubChem BioAssay, several laboratories
